TRPML1 blocker: blocks the human TRPML1 channel. hit rate 0.02% among 390,000. activity change, negative = inhibition, % (test concentration not listed). Q9GZU1. TRPML1-inducible cells, Ca2+ dye fluorescence, FDSS; active compounds read low; inhibition of EC80 agonist-evoked calcium signal. AID 624415; in the data active means activity change below about -50%; inconclusive means about -30% to -50%; inactive means above about -30%;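 note: stimulus is agonist 54-4 at its EC80 concentration; % is set by controls: 0 for no effect and ±100 for the full control effect; compound concentration not given in the record; the text of the record puts the active cut at -80%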
Target sequence (Q9GZU1 whole entry, looked up): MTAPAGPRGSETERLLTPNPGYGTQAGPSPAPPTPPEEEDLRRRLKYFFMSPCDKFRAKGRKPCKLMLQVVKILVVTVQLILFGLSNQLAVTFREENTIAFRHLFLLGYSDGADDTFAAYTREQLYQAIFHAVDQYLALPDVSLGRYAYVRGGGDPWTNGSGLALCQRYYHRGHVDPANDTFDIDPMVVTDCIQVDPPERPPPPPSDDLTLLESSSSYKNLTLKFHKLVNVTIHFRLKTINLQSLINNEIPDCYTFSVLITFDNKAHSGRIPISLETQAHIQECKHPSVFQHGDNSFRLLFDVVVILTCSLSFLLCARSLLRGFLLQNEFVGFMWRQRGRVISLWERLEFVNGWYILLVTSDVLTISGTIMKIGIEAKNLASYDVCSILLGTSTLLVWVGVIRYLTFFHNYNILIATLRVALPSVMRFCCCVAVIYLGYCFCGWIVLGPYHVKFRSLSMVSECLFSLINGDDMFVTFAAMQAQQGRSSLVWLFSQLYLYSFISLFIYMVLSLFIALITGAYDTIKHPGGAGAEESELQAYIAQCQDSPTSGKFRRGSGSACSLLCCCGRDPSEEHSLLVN
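Tet-induced TRPML1-DL cells loaded with Ca8 no-wash calcium dye were read kinetically on FDSS. Compound addition was followed by EC80 agonist 54-4 (4 uM final); inhibition was read over 110 s.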
TRPML1 ag: agonists of human TRPML1 channel; TRPML1-expressing cells, Ca2+ dye fluorescence, FDSS; host cell line not named in the record; reference of the full effect not given here; activation, % (test concentration not listed); hit rate 0.12% among 410,000; Q9GZU1; in the data active = activation above about 50%; inconclusive = about 30% to 50%; inactive = below about 30%; note: 0% is about no effect; the text of the record puts the active cut at 80%
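In this qHTS format, compounds were pin-transferred onto Ca8-dye-loaded TRPML1-DL cells induced with Tet overnight, and intracellular Ca2+ fluorescence was recorded kinetically for 110 s after a 10 s baseline. A subsequent 4uM final 54-4 (EC80) addition followed by a second 110 s read served as the antagonist phase.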
* = called active by the depositor. An excerpt; count on the stated rates, not on these rows.

SMILES	TRPML1 blocker	TRPML1 ag
CCCc1nc(SCc2cc(=O)c3ccc(C)c(C)c3[nH]2)n[nH]1	-17.9	2.6
Cc1ccccc1Nc1cc(C(=O)NC2CCC(C)CC2)c2ccccc2n1 (stereo not given)	17.7	1.4
CCn1cc(S(=O)(=O)c2cccc(C)c2)c(=O)c2cc(F)c(N3CCCCC3C)cc21 (stereo not given)	2.6	2.5
COc1ccccc1NCc1nnc2n1CCCCC2	0.6	-0.5
Cc1cccc(NC(=O)N2CCC(n3c(C)nc4cccnc43)CC2)c1	-21.9	0.6
Cc1ccc(Nc2c(-c3ccc(N(C)C)cc3)nc3ccccn23)cc1	11.2	1.0
COc1ccc2c(c1)c1c(c(=O)n(-c3ccc(C)cc3)c(=O)n1CC(=O)NCc1ccc(C)cc1)n2C	37.4	-0.4
CCCNc1ccc(-c2nc(-c3ccncc3)no2)cc1[N+](=O)[O-]	-10.8	-0.3
O=C(Nc1cccc(C(F)(F)F)c1)Nc1ccc2snnc2c1	-18.8	0.4
CCc1ccc(CNC(=O)c2ccc3nc(SCc4ccc(F)cc4)n(C)c3c2)cc1	-12.8	2.3
Cc1ccc(S(=O)(=O)c2cc3cc(C(=O)Nc4ccc(C)cc4C)ccc3oc2=O)cc1	-1.4	1.4
Cn1nnc2c(N3CCN(c4ccc(F)cc4)CC3)ncnc21	1.6	-0.5
O=C(CCn1c(=O)c2ccccc2n(Cc2cccc(Cl)c2)c1=O)NCCc1ccccc1	6.9	0.6
COc1ccc2sc(N(Cc3cccnc3)C(=O)COc3ccccc3)nc2c1	-8.1	-0.3
COc1ccc(C(=O)n2nc(-c3ccco3)nc2NCc2cccs2)cc1	-17.0	0.2
CC(C)c1nn2c(=O)cc(COC(=O)c3ccccc3NC(=O)C3CCCCC3)nc2s1	25.4	2.9
COc1ccc(C2C(=O)N(C3CCCCCC3)CC(=O)N2CCC2=CCCCC2)cc1 (stereo not given)	7.4	0.3
COC(=O)C1=C[C@@H](C(=O)OC)C2C3=C(C(=O)[C@@]2(C)NC(=O)c2ccccc2)[C@H](c2ccccc2)[C@@H]2C(=O)N(c4ccccc4)C(=O)[C@@H]2[C@@H]3C1 (stereo not given in full)	40.8	0.1
CCC1=Nc2cc(C(=O)N3CCC(C)CC3)ccc2Sc2ccc(C)cc21	37.8	2.1
CCOc1ccc(CNC(=O)c2ccc(NC(=O)N3CCCCc4ccccc43)cc2)cc1OC	-7.6	-0.4
CCOC(=O)CNC(=O)Cn1nc(N2CCN(c3ccccc3)CC2)ccc1=O	15.8	1.7
COc1cccc(Cn2c(CNS(=O)(=O)c3ccc(Cl)s3)nc3cccnc32)c1	28.2	3.0
Cn1nccc1C(=O)NCc1ccc2c(c1)CCN2C(=O)c1ccc(F)cc1	1.0	2.0
CCCCSc1nnc2c(n1)OC(C)N(C(C)=O)c1ccccc1-2 (stereo not given)	-3.4	-1.0
O=C1/C(=C\c2ccc(O)c(O)c2)Oc2c1ccc(O[C@@H]1O[C@H](CO)[C@@H](O)[C@H](O)[C@H]1O)c2O	-14.1	0.2
Cc1nc(N2CCCC2)ncc1C(=O)NCc1ccc(F)cc1	5.0	2.1
CCOC(=O)c1ccccc1NC(=O)c1ccc2c(Cl)c3c(nc2c1)CCC3	-5.8	-0.2
Cc1ccc(Cl)cc1N1CCN(C(=O)CCS(=O)(=O)c2ccc3c(c2)oc(=O)n3C)CC1	16.8	-0.8
CC(=O)c1cccc(NC(=O)C(Cc2ccccc2)NS(=O)(=O)c2ccc(Br)s2)c1 (stereo not given)	-6.6	3.3
CC(=O)c1ccc(NC(=O)CCCSc2nc(-c3ccco3)cc(C(F)(F)F)n2)cc1	12.9	4.1
Cc1ccc(OCC(=O)Nc2ccc(Cl)c(-c3nc4ncccc4o3)c2)c(C)c1	-5.6	0.6
Cc1cc(C)c(NC(=O)c2c(C)oc3c2C2=NCCN2C=N3)c(C)c1	2.3	-0.8
COc1cccc2c1Oc1ncccc1N(c1ccc(C(=O)NCc3ccccc3C)s1)C2	-4.3	0.4
Cn1nnnc1SCCCNCc1cccc(OCc2ccc(F)cc2)c1	0.4	1.5
CCn1cc(C(=O)N2CCN(c3ccccc3OC)CC2)c(=O)c2cc(S(=O)(=O)N3CCC(C)CC3)ccc21	-11.9	-1.3
CCCC12CN3CC(CCC)(CN(C1)C3c1c[nH]c3ccc(OC)cc13)C2=O (stereo not given)	-12.6	-0.5
COc1ccc(-n2nnc(-c3nsc(NC(=O)c4cccc(C)c4)n3)c2C)cc1OC	-10.0	0.3
CS(=O)(=O)N(CC(=O)NCCSCc1ccccc1)c1cc(C(F)(F)F)ccc1Cl	-10.4	1.3
CCCS(=O)(=O)Nc1cccc(-c2cn3ccc(C)cc3n2)c1	-12.4	0.7
Cc1nn(-c2ccccc2)c2c1N(CC(=O)NCc1ccc(N(C)C)cc1)C(=O)CS2	-11.5	-1.3
CCc1ccccc1NC(=O)Cn1c(=O)c2cccn2c2ccc(F)cc21	-7.2	1.6
CCOc1ccc(CNC(=O)c2cc(-c3ccc(Cl)s3)nc3ccccc23)cc1	6.3	1.1
Cc1cccn2c(=O)c(C(=O)NCc3ccc(F)cc3)c(O)nc12	-3.1	-0.3
Cc1oc(-c2ccc(Cl)cc2)nc1Cn1c(=O)cc(C)c2c(C)nn(-c3cccc(F)c3)c21	-2.4	0.1
FC(F)(F)c1cc(Nc2nc3ccccc3c3nncn23)ccc1Cl	41.5	-0.2
Cc1ccc(NC(=O)CSc2nnc(-c3ccc(Br)cc3)o2)c(C)c1	14.3	0.0
Cc1cccc(CSc2nnc3[nH]c(=O)cc(-c4ccccc4)n23)c1	-4.8	1.3
CCC1CN(C(=O)N2CCC(C(=O)Nc3cc(C)ccc3C)CC2)c2ccccc2O1 (stereo not given)	4.6	2.6
CCOC(=O)c1ccc(NC(=O)CCn2ccc(C)n2)cc1	-5.4	1.6
Cc1cc(F)ccc1NC(=O)CCS(=O)(=O)c1cc2c(cc1C)NC(=O)CO2	-6.1	4.6
CCOC(=O)c1c(NC(=O)COc2cc(C)ccc2C(C)C)sc(C)c1C	8.0	1.3
CC1=C(C(=O)Nc2cccnc2)C(c2ccccc2)n2nc(SCc3ccccc3F)nc2N1 (stereo not given)	-3.1	-0.6
COc1cc(OC)c(NC(=O)CN2CCCN(Cc3ccccc3C)S2(=O)=O)cc1Cl	-19.3	0.3
N#Cc1ccccc1S(=O)(=O)N1CCCC(c2nc3c(nnn3Cc3cccc(Cl)c3)c(=O)[nH]2)C1 (stereo not given)	8.2	0.3
CCn1ccc2cc(S(=O)(=O)N3CCCN(C(=O)NCC(=O)OC)CC3)ccc21	14.8	5.4
O=C(Cc1ccc(NC(=O)N2CCCCc3ccccc32)cc1)NCc1cccc(Br)c1	-12.1	-0.4
CN(C(=O)CSc1nc(-c2ccccc2)no1)c1ccc(F)cc1	37.2	2.4
O=C(CNC(=O)c1ccc(F)cc1)OCc1cc(=O)n2nc(C3CCCCC3)sc2n1	-4.0	-0.6
COc1ccc(CCNC(=O)c2cc3sccc3n2Cc2ccc(Cl)cc2)cc1OC	31.2	5.6
Nc1c(-c2nc(-c3ccc(Cl)cc3)no2)nnn1-c1ccc(C(F)(F)F)c(Cl)c1	-10.1	1.8

Filtered by structure: the compounds so far containing bromine
SMILES	TRPML1 blocker	TRPML1 ag
CC(=O)c1cccc(NC(=O)C(Cc2ccccc2)NS(=O)(=O)c2ccc(Br)s2)c1 (stereo not given)	-6.6	3.3
Cc1ccc(NC(=O)CSc2nnc(-c3ccc(Br)cc3)o2)c(C)c1	14.3	0.0
O=C(Cc1ccc(NC(=O)N2CCCCc3ccccc32)cc1)NCc1cccc(Br)c1	-12.1	-0.4

Additional results follow:
SMILES	TRPML1 blocker	TRPML1 ag
COc1ccc(NC(=O)CN2C(=O)CSc3ccc(S(=O)(=O)N(C)C)cc32)cc1OC	-11.7	-1.2
Cc1cccc(N2CCN(C(=O)c3cnn(-c4ccccc4Cl)c3C3CCN(C(=O)OC(C)(C)C)CC3)CC2C)c1 (stereo not given)	5.7	-0.2
O=C(NCCc1ccccc1)C(=O)NCC(c1cccnc1)N1CCN(c2ccccc2F)CC1 (stereo not given)	9.0	2.1
Cc1ccc(N2CC(NC(=O)c3ccc(Br)o3)CC2=O)cc1C (stereo not given)	5.5	-0.8
Cc1ccc(NC(=O)Cn2c(=O)n(Cc3nc(C)no3)c(=O)c3cc4c(cc32)OCO4)c(Cl)c1	12.3	-0.1
COc1cccc(CNS(=O)(=O)c2c(C(=O)N3CCC(C)CC3)c(C)n(C)c2C)c1	-24.5	1.3
COc1cccc(C(=O)Nc2c(C(=O)Nc3ccc(F)cc3)oc3ccccc23)c1OC	53.7	0.0
CN(C)c1ccc(CNC(=O)CN2CCSc3ccc(S(=O)(=O)N(C)C)cc32)cc1	-5.2	1.3
O=C(c1ccc(Nc2nc3ccccc3n3nnnc23)cc1)N1CCN(c2ccc(F)cc2)CC1	5.1	1.4
Cc1cccc(C)c1NC(=O)CCS(=O)(=O)c1ccc2c(c1)n(C)c(=O)c(=O)n2C	-9.0	3.3
CCOc1ccc(-c2cc3c(=O)n(CC(=O)NCc4ccccc4)ccn3n2)cc1	-13.6	1.3
CCOc1cc(C(=O)Nc2ccc(-c3nc4ccccc4s3)cc2Cl)cc(OCC)c1OCC	4.3	-0.3
CCc1ccc(C(=O)c2cn(CC(=O)Nc3ccc(F)c(F)c3)c3cc(OC)c(OC)cc3c2=O)cc1	-7.6	0.8
Cc1cccc(NC(=O)c2c(C)oc3ncnc(N4CCCCC4)c23)c1C	-3.4	1.3
CC(=O)c1ccc(NC(=O)COc2ccccc2-c2nc(C(C)C)no2)cc1	-16.5	-1.0
COc1cccc(OC)c1Cn1nnc2c(=O)[nH]c(C3CCN(C(=O)c4ccccc4)CC3)nc21	-10.3	3.2
Cc1ccc(NC(=O)Cn2c(=O)n(CCCCC(=O)NCc3ccccc3Cl)c(=O)c3ccccc32)cc1C	11.2	-0.4
COc1ccc(N2CC(NC(=O)COc3ccc(F)cc3)CC2=O)cc1OC (stereo not given)	1.8	1.0
Cc1ccc2nc(NC(=O)c3cc(=O)c4cc(C)c(C)cc4o3)sc2c1	5.6	0.2
O=c1c2cccnc2n(Cc2ccccc2F)c(=O)n1Cc1ccccc1Cl	19.6	-0.7
CC(C)(C)OC(=O)N1CCC(c2c(C(=O)N3CCN(c4ccccn4)CC3)cnn2-c2ccc(F)cc2F)CC1	-10.5	-0.2
CNC(=O)C1CCC(Cn2c(=O)c3sccc3n(CC(=O)Nc3ccccc3)c2=O)CC1 (stereo not given)	-15.7	0.4
CCc1ccc(CN(Cc2cn[nH]c2-c2ccc(OC)cc2)C(=O)Nc2ccc(C)c(F)c2)cc1	0.1	0.7
O=C(CN1C(=O)c2cccnc2Oc2ccc(Cl)cc21)NCCCN1CCCCC1	12.8	1.0
CCCCN1CCCc2cc(CN(CCCN3CCOCC3)C(=O)Nc3ccc(CC)cc3)ccc21	19.7	2.7
COc1cccc(CNC(=O)c2ccc(NC(=O)N3CC(C)Sc4ccccc43)cc2)c1 (stereo not given)	4.6	3.6
CCc1ccc(CNC(=O)c2cc3n(n2)CCCN(Cc2ccccc2)C3=O)cc1	-10.8	2.3
CC(C)c1ccc(NC(=O)Cn2cc(S(=O)(=O)Cc3cccc(Cl)c3)c3ccccc32)cc1	5.5	1.0
Cc1cc(=O)n(Cc2ccccc2)c2c1c(C)nn2-c1ccccc1	14.8	2.4
COc1ccccc1CNc1ncnc2c1nnn2C	32.1	3.0
COc1cccc(C(=O)Nc2nc3ccc(S(=O)(=O)N4CCCC4)cc3s2)c1	35.0	0.7
COc1ccc(N2CCN(C3(c4ccccc4)C(=O)c4ccccc4C3=O)CC2)cc1	-10.3	3.1
Cc1ccccc1C(=O)Nc1cccc(OCc2cc(=O)n3c4c(sc3n2)CCCC4)c1	6.5	0.6
CCN1CCN(C(c2ccccc2)c2c(O)cc(C)n(CCOC)c2=O)CC1 (stereo not given)	-3.7	0.2
CCN(Cc1nc(-c2ccc(OC)cc2)oc1C)S(=O)(=O)c1ccc(Cl)cc1	17.8	0.2
Cc1ccccc1Nc1c2c(nc3nncn13)CCC2	-2.2	1.3
Cc1ccc2nc(Nc3cccc(Cl)c3C)c(-n3nc(C)cc3C)nc2c1	-4.4	-0.6
Cc1cc(NC(=O)c2ccc3c(c2)OCCO3)cc(-c2nc3ccccc3o2)c1O	3.4	0.1
O=C(CN1C(=O)CCc2cc(S(=O)(=O)N3CCOCC3)ccc21)Nc1cccc(Cl)c1	9.0	1.7
Cc1oc(-c2ccccc2)nc1CNC(=O)NC1CCCCC1	-3.0	0.7
Cc1ccc2c(c1)N(CC(=O)Nc1ccccc1C(F)(F)F)C(=O)c1cccnc1O2	3.8	1.4

Compound profiles, as listed above:
Cc1cc(=O)n(Cc2ccccc2)c2c1c(C)nn2-c1ccccc1 reads TRPML1 blocker = 14.8; TRPML1 ag = 2.4
CN(C(=O)CSc1nc(-c2ccccc2)no1)c1ccc(F)cc1 reads TRPML1 blocker = 37.2; TRPML1 ag = 2.4
CC(C)c1ccc(NC(=O)Cn2cc(S(=O)(=O)Cc3cccc(Cl)c3)c3ccccc32)cc1 reads TRPML1 blocker = 5.5; TRPML1 ag = 1.0
